Tgondii IFNg: T. gondii growth inhibition with IFN-gamma, primary screen, cell-based; 69,000 tested, 3.8% active; activity change, negative = inhibition, %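 (about 20 µM by stock and volumes)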; Toxoplasma gondii growth in IFN-gamma-treated host cells; stronger effect = lower value; reference of the scale not given here; AID 1259416, 2018;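 active means below -70%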;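 further: host cells are HeLa cells infected with Toxoplasma gondii; parasite growth read as luciferase light; one replicate is shown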
* = called active by the depositor; i = inactive; & = joins results of further samples. Some of the compounds tested; the hit share may differ from the screen's.

SMILES	Tgondii IFNg
Cc1ncc(C(=O)NCCCc2nc3ccccc3s2)c(C)n1	-3
Cc1cccc(-n2cc(CN(C)C(C)C(=O)N(C)C)cn2)c1 (stereo not drawn)	5
COc1ccc(/C=C/CN2CCCN(C(=O)C3CCC3)CC2)cc1	-6
CN1C(=O)CCC12CCC(NC(=O)c1cscn1)CC2 (stereo not drawn)	-14
NC(=O)c1cc(-c2cc(NC3CCCC3)nc3[nH]ccc23)cs1	324
CC(=O)Nc1ccc(C(=O)N(Cc2ccccc2C)C2(C(=O)NCc3ccccc3)CCN(C(C)=O)CC2)cc1	162
O=C(NC(=O)c1ccc(F)cc1F)Nc1ccccc1Cl	i
CCCNC(=O)c1ccc(-c2nc(CN3CCN(c4ccccc4)CC3)c(C)o2)cc1	60
CCCc1nc(C)cc(-c2cccc(NC(C)=O)c2)n1	12
CC(C)(C)NC(=O)[C@@H]1CCCC[C@@H]1C(=O)NCCSc1ncn[nH]1	7
CC1(C)CC(=O)C(C2C3=C(CC(C)(C)CC3=O)Oc3ccccc32)C(=O)C1 (stereo not drawn)	6&-3
C[C@@H]1CCn2cc(nn2)COC[C@H](c2ccccc2)NC1=O	12
CNC[C@@H]1OCCCC[C@H](C)Oc2ccc(NC(=O)Nc3ccc(OC)cc3)cc2C(=O)N([C@@H](C)CO)C[C@H]1C	75
CCc1nc(N2[C@H](CO)[C@@H](c3ccccc3-c3ccc(F)cc3)[C@@H]2C#N)sc1C	24
Cc1cccc(CN2CCC3(COCc4cnc(NCc5ccco5)nc43)C2)c1 (stereo not drawn)	-18
CS(=O)(=O)c1ccc(CC(=O)N2CCC(c3nc4ccccc4cc3N)CC2)cc1	-25
C[C@@H](O)C#Cc1ccc([C@H]2[C@H]3CN(CC4CC4)CCCCN3[C@H]2CO)cc1	2
N#C[C@H]1[C@H](c2ccccc2C2=CCCCC2)[C@@H](CO)N1C(=O)CN1CCOCC1	-13
COc1ccc(OC)c(S(=O)(=O)N2CCc3c([nH]c4ccccc34)C2c2cc(F)ccc2F)c1 (stereo not drawn)	-34
CC(=O)N1CCc2cc(NC(=O)c3cc4cc(C)ccc4o3)ccc21	37
CCC/C=C/c1nccc(NC(C)C)n1	28
C[C@H]1CN([C@@H](C)CO)C(=O)Cc2cc(NC(=O)Nc3ccc(F)cc3)ccc2O[C@H]1CN(C)S(C)(=O)=O	23
CCOCC1CN(Cc2ccoc2)Cc2cn(CC)nc21 (stereo not drawn)	5
CCOC(=O)c1cc2sccc2n1Cc1ccccc1F	-60
CC(=O)N1C[C@@H]2CC(F)(F)C[C@@H]2C1	-24
CSc1cccc(NC(=O)Cn2c(=O)ccc3cc(S(=O)(=O)N4CCC(C)CC4)ccc32)c1	-65
Cc1cc(NC(=O)c2ccoc2COc2ccccc2)no1	-25
FC(F)(F)c1cccc(-c2noc(-c3cc(-c4ccccc4)c(C(F)(F)F)s3)n2)c1	6&-54&9
CCOc1ccccc1NC(=O)N1CCC2(CC1)NC(=O)c1ccccc1N2C	0
CC(=O)OCC(=O)C1(O)CCC2C3CC=C4CC(O)CCC4(C)C3CCC21C (stereo not drawn)	-11
C=CCN1CCOCC2(C1)CN(C(=O)c1ccn[nH]1)CCO2 (stereo not drawn)	-8
O=S(=O)(NC1CCOC2(CCN(Cc3ccccc3Cl)CC2)C1)C1CC1 (stereo not drawn)	4
CCN(CC)c1ncnc2c1cnn2CC(=O)Nc1ccc(C)c(C)c1	-32
Cc1ccc(CN2CCN(c3cncc(C(=O)N4CCCC4)n3)CC2)cc1F	-4
Cn1cc(N2CC3(CNCCOC3)OCC2=O)cn1 (stereo not drawn)	-33
CNC(=O)C1Cn2ccnc2C2(CCN(Cc3nccs3)CC2)O1 (stereo not drawn)	17
Cc1nc(-c2ccc(Cl)cc2)sc1CCNC(=O)c1c(F)cccc1F	-46
Cc1ccccc1-c1nc(CSc2nc3c(=O)[nH]cnc3n2CC2CCCO2)c(C)o1 (stereo not drawn)	-12
O=S(=O)(c1ccccc1)N1C[C@@H]2[C@H](c3ccccc31)[C@H](CO)N2Cc1ccccn1	-3
CCN1CCn2c(-c3ccccc3)cnc2C12CCN(C(=O)c1cscn1)CC2	-48
CN(C)C(=O)C[C@H]1C=C[C@H](NC(=O)c2ccc(F)cc2)[C@H](CO)O1	30
O=S(=O)(c1ccc(F)cc1)N1CCCn2cnc(CN3CCCC3)c2C1	-32
O=C(Nc1ccc(F)cc1)N1CCn2cnnc2C1	-25
COCCN1C(=O)CCc2cc(NS(=O)(=O)Cc3ccccc3F)ccc21	7
O=C(NCC1CNCCOC1)Nc1ccccc1Cl (stereo not drawn)	-2
Cc1cccc(CN2CC[C@@H]3OCCN(C(=O)c4ccco4)[C@@H]3C2)n1	-42
CNC[C@H]1Oc2cc(C#Cc3ccccc3OC)ccc2S(=O)(=O)N([C@@H](C)CO)C[C@@H]1C	37
Oc1ccccc1-c1nc(-c2ccc3c(c2)CCO3)n[nH]1	-40
CC(C)C(=O)c1ccc2nnc3ncn(C4CCCC4)c3c2c1	-16
C[C@@H]1CN([C@H](C)CO)C(=O)CCCn2nncc2CO[C@@H]1CN(C)Cc1cccc(C(F)(F)F)c1	171
Cc1cccc(-n2cc(CN(C)CC3(CO)CC3)cn2)c1	44
CC(C)n1cc(C(N)=S)c(=O)n(Cc2ccccc2)c1=O	-40
Cc1cccc(Nc2ncnc3c2cnn3-c2ccc(Cl)cc2)c1	21
COc1ccc(CNC(=O)[C@@H]2C[C@H](NC(=O)C3CCC3)CN2C)cc1OC	4
COc1ccccc1NC(=O)c1nnn(Cc2nc(-c3cccc(OC)c3OC)oc2C)c1C	-83*
O=C(c1ccccc1)N1CCN(C(=O)c2ccccc2)CC1	-10
CCO[C@H]1COC[C@@H]1NC(=O)c1ccc2sc(N)nc2c1	1
COCCCNC1=NCCNC12CCN(S(=O)(=O)c1ccc(C)cc1C)CC2	15
COc1ccccc1C1CCN(Cc2sc3ccccc3c2C)CC1	-49
COc1ccccc1-c1nc(Cn2nnc(-c3nc(-c4cccc(OC)c4OC)no3)c2C)c(C)o1	6

Another view of 16 compounds above:
molecule | Tgondii IFNg
O=C(NCC1CNCCOC1)Nc1ccccc1Cl (stereo not drawn) | -2
Cc1cccc(CN2CC[C@@H]3OCCN(C(=O)c4ccco4)[C@@H]3C2)n1 | -42
CNC[C@H]1Oc2cc(C#Cc3ccccc3OC)ccc2S(=O)(=O)N([C@@H](C)CO)C[C@@H]1C | 37
Oc1ccccc1-c1nc(-c2ccc3c(c2)CCO3)n[nH]1 | -40
CC(C)C(=O)c1ccc2nnc3ncn(C4CCCC4)c3c2c1 | -16
C[C@@H]1CN([C@H](C)CO)C(=O)CCCn2nncc2CO[C@@H]1CN(C)Cc1cccc(C(F)(F)F)c1 | 171
Cc1cccc(-n2cc(CN(C)CC3(CO)CC3)cn2)c1 | 44
CC(C)n1cc(C(N)=S)c(=O)n(Cc2ccccc2)c1=O | -40
Cc1cccc(Nc2ncnc3c2cnn3-c2ccc(Cl)cc2)c1 | 21
COc1ccc(CNC(=O)[C@@H]2C[C@H](NC(=O)C3CCC3)CN2C)cc1OC | 4
COc1ccccc1NC(=O)c1nnn(Cc2nc(-c3cccc(OC)c3OC)oc2C)c1C | -83*
O=C(c1ccccc1)N1CCN(C(=O)c2ccccc2)CC1 | -10
CCO[C@H]1COC[C@@H]1NC(=O)c1ccc2sc(N)nc2c1 | 1
COCCCNC1=NCCNC12CCN(S(=O)(=O)c1ccc(C)cc1C)CC2 | 15
COc1ccccc1C1CCN(Cc2sc3ccccc3c2C)CC1 | -49
COc1ccccc1-c1nc(Cn2nnc(-c3nc(-c4cccc(OC)c4OC)no3)c2C)c(C)o1 | 6

More records follow.
SMILES	Tgondii IFNg
COc1cc(CCNC(=O)COc2c(C)ccc(C)c2C)ccc1O	19
C=C(C)c1cccc(C(C)(C)NC(=O)NCc2ccco2)c1	-25
O=C(CCN1C(=O)c2ccccc2C1=O)Nc1ccccc1C(=O)N1CCCCC1	1
COc1ccc2c3c(n(C)c2c1)[C@H](CO)N(C(=O)CN1CCOCC1)CC31CCN(C(=O)Nc2cccc(F)c2)CC1	-5
CCN1C(=O)[C@H]2CN(c3ncccn3)C[C@@H]2C12CCN(S(=O)(=O)CC(C)C)CC2	-13
COc1ccc(C2=C(CN(C)C)C(c3ccccc3)c3ccccc3O2)cc1 (stereo not drawn)	-60
CN1C(=O)c2cc(NS(C)(=O)=O)ccc2OC[C@@H]2O[C@H](CC(=O)N3CCOCC3)CC[C@@H]21	2
c1nc(N2C[C@@H]3C4CCC(CC4)[C@@H]3C2)c2cc[nH]c2n1	35
Cc1ncc(-c2onc(C)c2C)c(CCNC(=O)Cc2ccccc2F)n1	31
Cn1ccc2c(-c3ccc(C(=O)O)cn3)ccnc21	12
CCN1c2cc(C)ccc2-n2cccc2C12CCN(S(=O)(=O)Cc1ccccc1)CC2	-67
Cc1cc(C)nc(N(C#N)CC(=O)N2CCC(C(N)=O)CC2)n1	82
CCC(c1ccncc1)n1ccnc1-c1ccc(C#CC(C)(C)O)cc1 (stereo not drawn)	2
COc1ccc(CNC(=O)c2ccc(-c3nc(CN4CCc5ccccc54)c(C)o3)cc2)c(OC)c1	263
C[C@@H]1CN([C@@H](C)CO)C(=O)CCCn2nncc2CO[C@H]1CN(C)C(=O)Nc1ccc(-c2cccs2)cc1	410
Cc1cccc(CN2C[C@@H]3CN(C(=O)c4cnccn4)C[C@H]3C2=O)n1	-29
CC(NC(=O)CCNc1ncnc2nc[nH]c12)c1ccc2c(c1)OCCO2 (stereo not drawn)	6
CS(=O)(=O)N1CC=C[C@@H]1C(=O)NCCc1ccccc1	-32
CC(C)CN1CC(C(=O)N2CCc3[nH]nc(C4CCC4)c3C2)CC1=O (stereo not drawn)	-4
Cc1ccc(S(=O)(=O)Nc2cccc3c2O[C@@H](CN(C)C(=O)Nc2ccc(C(F)(F)F)cc2)[C@@H](C)CN([C@H](C)CO)C3=O)cc1	38
CCc1cn[nH]c1C1CCN(c2noc(-c3ccccc3)n2)CC1	9
COc1ccc(NC(=O)Nc2ccc(-c3nc(-c4ccc(C)cc4)co3)cc2)cc1	53
CCN(Cc1nc(C)no1)C(=O)c1ccc(-n2nc(C)cc2C)cc1	8
FC(F)(F)c1cccc(CNc2nc3ncccc3o2)c1	19
Cc1cc(CN2CCC3(CCCN3c3ncccn3)CC2)nn1C	-22
CCS(=O)(=O)Nc1ccc2c(c1)C(=O)N(C)[C@H]1CC[C@H](CC(=O)NC3CCCCC3)O[C@@H]1CO2	18
Cc1cc(C)n(CC(C)NCc2noc(-c3ccc4c(c3)OCO4)n2)n1 (stereo not drawn)	15
Cc1ccn(CCNC(=O)CSc2nccc3ccccc23)n1	10
COc1cccc(CC(=O)N2C[C@@H]3CN(CC4CC4)CCO[C@@H]3C2)c1	3
Cc1ccsc1C(=O)N1CCC[C@]2(C(=O)N(C)C)CN(Cc3cnn(C)c3)C[C@H]2C1	4
CCS(=O)(=O)Nc1ccc2c(c1)C(=O)N(C)[C@H]1CC[C@H](CC(=O)NC3CCCCC3)O[C@H]1CO2	-27
O=C1N[C@@H](Cc2ccccc2)COCc2cn(nn2)CC[C@H]1Cc1cccc(F)c1	2
Clc1cc(Cl)c2c(c1)C=C1CCCCC1(N1CCOCC1)O2 (stereo not drawn)	57
COc1cccc(C2CCN2Cc2c(C)n(CC(N)=O)c3ccccc23)c1 (stereo not drawn)	-30
CC(=O)c1cc(F)c(N2CCCC2)cc1C	-4
CN(Cc1ccccc1)c1ncccc1CNC(=O)c1ccon1	7
Cc1ccc2c(c1)CN(C(=O)c1csc(-c3cccs3)n1)CC(C)O2 (stereo not drawn)	-6
C=CCN(Cc1ccccc1)C(=O)C(=O)N1CCOCC1	-3
c1c(CN2CCC(N3CCSCC3)CC2)nn2c1CNCC2	-1
CC(C)CCN1C(=O)N(C(C)C)C(=O)C12CCN(Cc1ccc(CN3CCCCC3)s1)CC2	-3
Cc1nccn1CCC1CCCCN1C(=O)c1cccc(Cn2cccn2)c1 (stereo not drawn)	14
O=C(c1ccc(-c2ccccc2)c(F)c1)C1CCCN(Cc2ccncc2)C1 (stereo not drawn)	-56
O=C(c1cccc(F)c1)N1CCC2(CC1)Nc1cc(F)ccc1-n1cccc12	51
COC(=O)C[C@H]1CC[C@@H]2[C@H](COc3ccc(NC(=O)c4ccc(C(F)(F)F)cc4)cc3C(=O)N2C)O1	11
O=c1cccnn1CC1CN(c2ncc(F)cn2)Cc2nccn2C1 (stereo not drawn)	0
Cc1nc(N(C)C)nc2c1COCC21CCN(c2ncccn2)C1 (stereo not drawn)	2
C=CCn1cc(CNC23CC4CC(C2)CC(n2cncn2)(C4)C3)c(C)n1	5
Cc1ccc(-c2cc(C(=O)N(C)C(C)Cc3ncccc3C)n[nH]2)o1 (stereo not drawn)	1
Cc1cc(CN(C)Cc2c(C)nn(-c3ccc(F)cc3)c2C)n[nH]1	-40
Cc1ccsc1C(=O)N1CCc2nc(-c3cnn(C)c3)nc(N(C)C)c2C1	-3
Fc1cccc(-c2noc(-c3ccc(N4CCC(N5CCCCC5)CC4)nc3)n2)c1	-20
Cc1ccc(N2CC(NC(=O)c3cc4n(n3)CCCN(C)C4)CC2=O)cc1 (stereo not drawn)	-3
Cc1c(Cl)cc(F)cc1S(N)(=O)=O	35
C=CCn1cc(Cc2cn(CC=C)nc2C)c(C)n1	-47
Cc1ccc(-c2coc(-c3ccc(NS(=O)(=O)c4ccc(N5CCCC5=O)cc4)cc3)n2)c(C)c1	-5
O=C(C[C@@H]1CC[C@@H]2[C@H](COC[C@H](O)CN2C(=O)c2ccccc2F)O1)NCc1ccc(Cl)c(Cl)c1	-40
O=C1CSC(c2ccccc2)N1c1cccnc1 (stereo not drawn)	-25
CC(C)=CCOc1cc2oc(=O)ccc2cc1O	1
CO[C@@H]1CN(C)C(=O)c2cc(NC(=O)Nc3cccc(Cl)c3)ccc2OC[C@@H](C)N(C(=O)Nc2c(C)noc2C)C[C@H]1C	213
COCC1CN(C(=O)c2ccc3c(c2)OCO3)Cc2ncn(C)c21 (stereo not drawn)	32
Cc1ccc(CN2C[C@@H]3C[C@H](C(=O)NC(C)C)[C@@H](C2)O3)o1	-30
O=C(CN1C(=O)CCc2cc(S(=O)(=O)N3CCOCC3)ccc21)N1CCC2(CC1)OCCO2	9
